WNV NS2B-NS3 inh: WNV NS2B-NS3 proteinase inhibition | WNV NS2B-NS3 protease, fluorogenic substrate Ex360/Em465; stronger effect = lower value | P06935 | actives 0.18% (n = 65,000) | AID 577 | z-score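 (tested at a level between 10 and 100 µM)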;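 active means z-score at -3 or under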;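 further: score is relative to mean and spread of the compound wells of a plate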
Target sequence (P06935 1371-1501 limits assumed): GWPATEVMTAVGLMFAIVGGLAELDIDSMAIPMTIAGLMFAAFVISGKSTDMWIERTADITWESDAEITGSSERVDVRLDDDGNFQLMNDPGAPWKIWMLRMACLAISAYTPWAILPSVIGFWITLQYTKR
Target sequence (P06935 1502-1679 limits assumed): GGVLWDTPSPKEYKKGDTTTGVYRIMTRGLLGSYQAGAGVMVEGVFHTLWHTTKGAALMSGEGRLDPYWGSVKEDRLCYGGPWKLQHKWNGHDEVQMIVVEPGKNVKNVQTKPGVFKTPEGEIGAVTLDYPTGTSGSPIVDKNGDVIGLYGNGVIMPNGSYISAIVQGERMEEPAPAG
Hsc70 ATP site: Hsc70 inhibitors, probe displacement, primary screen, biochemical, fluorescence polarization (AID 568) | Hsc70 fluorescence polarization, probe displacement; higher % means a stronger effect; strong numbers were not always called active | one-dose displacement, % at 20 µM; IC50 in µM for titrated hits | 83,000 tested, under 10 active;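 active means displacement above 50% without optical interference and an IC50 on retest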;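 further: ATPase domain with a fluorescein-tagged ATP probe; 0% = vehicle and 100% = excess ADP; read after one hour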
MT1-MMP reporter: MT1-MMP gene expression reporter suppression – cell-based, luciferase reporter, luminescence (AID 618); MT1-MMP promoter luciferase reporter cells, luminescence; actives 0.62% (n = 87,000); calls from a first round at 10 µM; hits with a dose series show EC50 in µM;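 active means over half of the reporter light lost at 10 µM or EC50 under 50 µM; inactive means the rest and hits that failed the dose series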;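 further: actives suppress MT1-MMP promoter-driven transcription so potencies describe inhibitors; HT1080 fibrosarcoma cells; overnight exposure; toxic or luciferase-blocking compounds were not removed from the actives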
An asterisk follows results filed as active; i = inactive; nt = not tested or not shown.

structure,WNV NS2B-NS3 inh,MT1-MMP reporter,Hsc70 ATP site
O=C(O)CSCC(=O)Nc1cccc(C(F)(F)F)c1,nt,i,0.6%
O=C1CC(SCc2nc3ccccc3[nH]2)C(=O)N1c1ccc(F)c(Cl)c1 (stereo not given),nt,i,-1.6%
COc1ccc(NC(=O)C2CCCN2S(=O)(=O)c2ccc3c(c2)CCC(=O)N3)cc1Cl (stereo not given),0.89,i,4.7%
CC(C)OC(=O)CSc1nnc(Cc2ccccc2)n1Cc1ccco1,-0.42,i,-1.9%
Cc1nc(COC(=O)c2ccc(S(=O)(=O)N3CCCC3)cc2)cs1,-0.64,i,0.2%
C1=C(CCNc2nnnn2-c2ccccc2)CCCC1,0.02,i,2.2%
O=C(Nc1cccnc1)C1CCCN(S(=O)(=O)c2ccccc2)C1 (stereo not given),nt,i,-0.7%
CCOC(=O)c1[nH]c(C)c(C(=O)Nc2cccc(Cl)c2C)c1C,-0.48,i,3.6%
O=C(CSc1ncccc1-c1nc2ccccc2[nH]1)N1CCCCC1,-0.07,i,0.0%
CCOC(=O)C1CCCN(CCC(=O)Nc2ccc3c(c2)CCC3)C1 (stereo not given),0.86,i,-3.8%
Cc1ccc2c(N)c(C)ccc2c1,-1.5,i,1.0%
O=C1OC(N2CCN(C(=O)c3ccco3)CC2)c2ccccc21 (stereo not given),-0.82,i,3.6%

Reprinted from the part before: 5 compounds, then new ones.
structure,WNV NS2B-NS3 inh,MT1-MMP reporter,Hsc70 ATP site
CCOC(=O)c1[nH]c(C)c(C(=O)Nc2cccc(Cl)c2C)c1C,-0.48,i,3.6%
O=C(CSc1ncccc1-c1nc2ccccc2[nH]1)N1CCCCC1,-0.07,i,0.0%
CCOC(=O)C1CCCN(CCC(=O)Nc2ccc3c(c2)CCC3)C1 (stereo not given),0.86,i,-3.8%
Cc1ccc2c(N)c(C)ccc2c1,-1.5,i,1.0%
O=C1OC(N2CCN(C(=O)c3ccco3)CC2)c2ccccc21 (stereo not given),-0.82,i,3.6%
CC1Cn2c(CCc3ccccc3)nnc2S1 (stereo not given),1.2,i,4.1%
O=C(NCCNC(=O)c1ccco1)c1cccc(F)c1,0.12,i,3.4%
CC(NC(=O)COc1ccc(Oc2ccccc2)cc1)C(=O)O (stereo not given),nt,i,1.6%
Cc1n[nH]c(C)c1C(=O)CC1(O)C(=O)N(CCc2ccccc2)c2ccc(Cl)cc21 (stereo not given),0.59,i,6.0%
O=C1CCc2cc(S(=O)(=O)N3CCN(C(=O)c4ccco4)CC3)ccc2N1,-0.69,i,0.9%
Cc1cc(C)c2c(n1)sc1c(N3CCN(CCO)CC3)ncnc12,-0.69,i,5.8%
COc1ccc(-c2csc(NC(C)=O)n2)cc1OC,0.47,i,-3.8%
Cc1nnc(SCC(=O)Nc2ccc3c4c(cccc24)CC3)n1C,-0.91,i,0.1%
COc1ccc(C2(C(=O)Nc3c(C)n(C)n(-c4ccccc4)c3=O)CCCC2)cc1OC,-0.41,i,-3.0%
Cc1cc(C(=O)N2CCN(Cc3ccc4c(c3)OCO4)CC2)cs1,-1.4,i,2.0%
COc1ccc(Nc2nc(N)nc(COc3ccc(OC)cc3)n2)cc1,nt,i,-2.1%
CC1(C)Cc2ccccc2-c2c1c(=O)n(-c1ccccc1)c1nnnn21,0.39,i,3.7%
C[n+]1cccc(CNC(=O)/C=N/O)c1,-0.36,i,-4.1%
COc1ccccc1NC(=O)N1CCC(C(=O)c2ccc(F)cc2)CC1,1,i,-4.6%
O=C(O)CCC(=O)N1CCc2cc(S(=O)(=O)N(CCc3ccccc3)Cc3ccccc3)ccc21,nt,i,-5.2%
CCc1nc(N2CCCCC2)c2oc3ccccc3c2n1,-0.11,i,5.2%
COCCOC(=O)c1[nH]c2c(c1C)C(=O)C(C(=O)OC)C(C)C2 (stereo not given),-0.18,i,4.8%
Clc1ccc(OCc2nc(-c3ccccn3)n[nH]2)cc1,3.1,i,12%
COc1ccc(CCn2nnnc2C(c2ccccc2)N2CCN(C)CC2)cc1OC (stereo not given),-1.2,i,5.7%
CCCCOc1ccc(C2(C(=O)O)CCCC2)cc1,-0.49,i,4.7%
c1ccc(SCc2nc(-c3ccncc3)no2)cc1,-0.69,i,-5.4%
CCOC(=O)c1ccc(NC(=O)C2C3CCC(C3)C2C(=O)O)cc1 (stereo not given),-0.64,i,-4.4%
O=C(C1CCCCC1)N1CCCn2c1nc1ccccc12,1.1,i,-3.1%
Cc1cc(NS(=O)(=O)c2ccc(NC(=O)c3ccco3)cc2)no1,-1.1,i,1.5%
O=C(CSc1nnc(-c2ccc(S(=O)(=O)N3CCCC3)cc2)o1)NCc1ccco1,-0.89,i,3.0%
N#Cc1nc(Cc2ccccc2)oc1NCCCn1ccnc1,0.41,i,0.5%
CC1Cc2ccccc2N1C(=O)CSc1nnnn1-c1ccc2c(c1)OCCO2 (stereo not given),0.2,i,5.9%
CCN(CC(=O)NC)S(=O)(=O)c1ccc(C)cc1,-0.27,i,1.9%
CS(=O)(=O)N(CC(=O)NC1CCCC1)c1cccc(F)c1,0.37,i,-2.3%
Cn1cnnc1SCc1ccc(C(=O)O)cc1,0.22,i,5.6%
Cc1cc(S(=O)(=O)Nc2ccc(N(C)C)cc2)c(C)s1,nt,i,3.4%
CCOC(=O)c1ccc(NC(=O)CC2SCCNC2=O)cc1 (stereo not given),0.15,i,-9.1%
CCOC(=O)N1CCN(C(=O)c2cc3c(-c4ccc(Cl)cc4)nn(C)c3s2)CC1,0.65,i,2.3%
CCCn1c(SCC(=O)N2CCCc3ccccc32)nc2c1c(=O)n(C)c(=O)n2C,-0.46,i,5.3%
COc1ccc(CCNC2=NCC(C)S2)cc1 (stereo not given),0.91,i,0.8%
COC(=O)n1c(=S)oc2cc(Cl)ccc21,1.1,i,-5.1%
N#CCCN(C(=O)Nc1ccccc1)c1ccccc1,1.2,i,-3.2%
COC(=O)c1c(C(=O)OC)c(-c2cccc(C)c2)n2c1CS(=O)(=O)C2,nt,i,1.8%
CC1CCC(NC(=O)CC2Oc3ccccc3NC2=O)CC1 (stereo not given),0.23,i,2.3%
Cc1cc(C)cc(OCC(=O)NN2Cc3ccccc3C2=N)c1,nt,i,3.1%
CCCSc1nc(NCc2ccco2)c2c3c(sc2n1)COC(C)(C)C3,nt,i,-3.1%
CCOc1ccc(NC(=O)N(CCN2CCOCC2)Cc2ccc3c(c2)CCCN3CC)cc1,-0.92,i,0.1%
Cc1ccc(NC2=NC(c3ccccc3)n3c(nc(C)cc3=O)N2)cc1 (stereo not given),0.63,i,-1.2%
c1ccc(CCNc2ncnc3nc[nH]c23)cc1,-0.48,i,2.5%
Cc1ccc(N(CC(=O)NCc2ccc3c(c2)OCO3)S(C)(=O)=O)cc1,0.91,i,-5.6%
COCCn1c(SCC(=O)Nc2nc(C)c(Cl)cc2Cl)nc2ccccc21,-1.3,i,4.5%
COCCn1c(SCC(=O)c2ccc(F)cc2)nnc1C(C)C,-0.47,i,-1.6%
O=C(O)[C@H](Cc1ccccc1)N1C(=O)c2ccncc2C1=O,-0.83,i,-2.3%

Continued; the last two above are carried over.
structure,WNV NS2B-NS3 inh,MT1-MMP reporter,Hsc70 ATP site
COCCn1c(SCC(=O)c2ccc(F)cc2)nnc1C(C)C,-0.47,i,-1.6%
O=C(O)[C@H](Cc1ccccc1)N1C(=O)c2ccncc2C1=O,-0.83,i,-2.3%
Cc1csc(NC(=O)c2ccccc2C(=O)O)n1,-0.62,i,-5.0%
COc1ccccc1Nc1nc(N)nc(CSc2nc(C)cc(C)n2)n1,0.95,i,1.6%
OC(CCN1CCCCC1)(c1ccccc1)c1ccccc1,0.72,i,2.0%
Cc1ccc(S(=O)(=O)Cn2nnnc2CN2CCOCC2)cc1,-1.5,i,0.2%
C[C@H](NC(=O)c1ccco1)C(=O)Nc1ccc(S(=O)(=O)N2CCCC2)cc1,nt,i,2.2%
CN1CCN(S(=O)(=O)c2ccc(NC(=O)C3CCCCC3)cc2)CC1,-1.5,i,4.7%
O=C(Cc1sc(-c2ccccc2Cl)nc1-c1ccccc1)Nc1ccccc1,nt,i,2.5%
O=C(c1ccccc1)N1CCSC1=S,nt,i,0.7%
Cc1cc(/C=N/Nc2ccc([N+](=O)[O-])cn2)c(C)n1-c1ccccc1,nt,i,-2.2%
Cc1c(=O)n(OCc2ccccc2F)c2ccccc2[n+]1[O-],0.21,i,3.0%
Cc1ccc(OCCNS(=O)(=O)c2ccc(N3CCCC3=O)cc2)cc1C,nt,i,1.2%
Cn1c(C(O)c2ccc(Cl)cc2)nc(Cl)c1Cl (stereo not given),-1.2,i,7.9%
C=CCOc1ccc(C2C(C(=O)c3cccs3)=C(O)C(=O)N2c2nnc(C)s2)cc1 (stereo not given),nt,i,96%
CCOC(=O)c1[nH]c(C)c(C(=O)NCCC2=CCCCC2)c1C,0.06,i,-11%
O=C(Nc1ccccc1)Nc1nnc(-c2ccccc2)o1,nt,i,-2.4%
CC(C)C[C@H](NC(=O)N1CCN(c2ccccc2)CC1)C(=O)O,0.04,i,5.7%
C=CCn1c(SCc2cccnc2)nnc1-c1ccncc1,1.8,i,-7.1%
O=C(CSc1ncccn1)Nn1cnnc1,0.27,i,-2.7%
COCC(C)n1c(C)cc(C(=O)COC(=O)c2c(NC(C)=O)sc(C)c2C)c1C (stereo not given),-0.0018,i,-6.5%
O=C1Nc2ccc(Br)cc2C1(O)Cc1ccccn1 (stereo not given),-0.8,i,-4.7%
COc1ccccc1OCCCCNCCO,0.2,i,1.1%
O=C(Nc1ccc2c(c1)OCCO2)c1ccco1,-0.29,i,2.6%
O=C(c1c(F)cccc1F)N1CCN(c2ncccn2)CC1,nt,i,0.5%
Cc1ccc(C(=O)Nc2ccccc2C(=O)NC(C(=O)O)C(C)C)cc1 (stereo not given),nt,i,3.2%
CC(C)Oc1ccc(C2/C(=C(/O)c3ccc(F)cc3)C(=O)C(=O)N2CCCN(C)C)cc1 (stereo not given),0.86,i,-3.5%
CCNC(=O)CC1C(=O)N(c2ccccc2)C(=O)N1CCc1ccc(OC)cc1 (stereo not given),0.42,i,1.7%
O=C1CCCC2=C1C(c1ccncc1)c1c(nc(SCc3ccccc3)[nH]c1=O)N2 (stereo not given),1.2,i,-21%
O=C(NCCCN1CCN(c2ccc(F)cc2)CC1)c1cccc(N2CCCC2=O)c1,1.3,i,-1.9%
Cc1nc(NC(=O)C2CC2)sc1C(=O)N(C)C,nt,i,-3.3%
COc1cccc(C=Nc2cc(C)on2)c1O,0.1,i,2.7%
CC(NC(=O)CN1C(=O)NC(Cc2ccccc2)(Cc2ccccc2)C1=O)C12CC3CC(CC(C3)C1)C2 (stereo not given),nt,i,-4.5%
CCCc1cc(=O)[nH]c(SCC(=O)Nc2nonc2N)n1,1.3,i,-5.5%
COc1cc(OC)cc(C(=O)N(CN2CCCC2=O)c2ccccc2OC)c1,-1.4,i,1.0%
O=C(O)CCS(=O)(=O)Cc1ccccc1F,1,i,-0.2%
COCCSc1ccccc1C(=O)NCc1ccc(S(N)(=O)=O)cc1,nt,i,3.6%
CN1C(=O)CSc2ccc(NC(=O)N3CCc4ccccc43)cc21,-0.58,i,-9.1%
COc1cccc2sc(Nc3nnc(-c4ccccc4Cl)o3)nc12,0.76,i,2.0%
CCc1ccccc1NC1c2ccccc2C(=O)N1c1cc(C)ccn1 (stereo not given),-0.2,i,2.8%
Cc1ccc(Cl)cc1NC(=O)c1cnn2c1NC(c1ccco1)CC2C(F)(F)F (stereo not given),nt,i,-0.9%
Cc1ccc2c(CN3CCCc4ccccc43)cc(=O)oc2c1C,-0.87,i,-3.4%
CCn1c(=N)c(C(=O)NCCCOC)cc2c(=O)n3cccc(C)c3nc21,2.3,i,-0.1%
CC(C)=CCSc1nnc(CCNC(=O)OC(C)(C)C)o1,-0.57,i,-3.3%
O=C(NCC1CCCO1)c1cc2n(n1)C(C(F)(F)F)CC(c1ccc(Br)cc1)N2 (stereo not given),-0.48,i,-0.3%
C=CCc1ccccc1OCC(O)CN1CCN(c2ccccc2OC)CC1 (stereo not given),0.38,i,-0.5%
Cc1sc(NC(=O)CSc2nnc(C(C)C)n2C)c(C#N)c1C,nt,i,1.1%
Cc1ccc(C)c(Cn2c(=O)n(CCC(=O)NCc3ccco3)c(=O)c3sccc32)c1,-0.27,i,-2.9%
COc1ccc(Cn2c(=O)sc3ccccc32)cc1OC,-0.16,i,-3.5%
Cc1cccc(-c2nsc(SCC(=O)N3CCCC3)n2)c1,-0.32,i,-4.4%
Cc1noc(C)c1C(=O)Nc1c(F)cc(F)cc1Br,0.09,i,3.0%
CCS(=O)(=O)N1CCCC(C(=O)NC2CCC(C)CC2)C1 (stereo not given),0.31,i,4.1%
